FGF22 binding: binders of human FGF22 protein, primary screen, FGF22 synaptogenesis inhibitor project, biophysical, thermal shift, single point | calls only at 9.99 µM | recombinant FGF22 thermal shift, SYPRO orange fluorescence; percent of sucrose octasulfate shift, DMSO zero | hit rate 1.5% among 340,000;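 active means melting point raised past a set limit in the mean and every replicate; inconclusive means no clear call; three in four hits are not shown here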
Target sequence (Q9HCT0 whole entry, looked up): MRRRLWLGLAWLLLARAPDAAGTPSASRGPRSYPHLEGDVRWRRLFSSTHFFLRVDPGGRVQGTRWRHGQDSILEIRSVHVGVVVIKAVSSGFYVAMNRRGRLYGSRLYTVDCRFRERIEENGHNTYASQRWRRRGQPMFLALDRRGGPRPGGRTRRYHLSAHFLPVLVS
ALR H2O2 inh: inhibitors of human ALR sulfhydryl oxidase, primary screen, biochemical, H2O2 detection, HRP-luminol luminescence, single point; purified ALR, DTT oxidation; inhibition, % (concentration not given with the values); hit rate 3.8% among 290,000;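 active means mean and each replicate at 75% or more; inconclusive means only one of the two met; inactive means neither met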;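 further: stock transfer was 7.5 nL into about 7.5 µL; 0% = neutral wells and 100% = wells with inactivated enzyme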
Target sequence (P55789 whole entry, looked up): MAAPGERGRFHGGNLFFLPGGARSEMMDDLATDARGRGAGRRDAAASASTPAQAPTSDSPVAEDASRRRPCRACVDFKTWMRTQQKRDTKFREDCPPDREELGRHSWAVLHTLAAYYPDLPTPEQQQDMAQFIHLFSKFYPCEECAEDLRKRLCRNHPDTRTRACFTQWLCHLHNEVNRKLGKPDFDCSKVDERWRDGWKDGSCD
Vif TR-FRET: inhibitors of Vif binding to APOBEC3G peptide, primary screen, biochemical, TR-FRET, GST-Vif 1-94, biotin-A3G peptide, dose response retest (AID 1117319); Virion infectivity factor (Human immunodeficiency virus type 1 group M subtype B (isolate …; TR-FRET GST-Vif / biotin-A3G peptide binding; higher % means a stronger effect; test concentration not given here; strong numbers were not always called active; inhibition, %, or IC50 in µM where a hit was titrated; hit rate 0.57% among 260,000;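 active means above the screen mean plus three standard deviations and confirmed in dose response; inconclusive means results disagree or hit not tested in dose response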;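 further: Vif residues 1-94 fused to GST binding biotinylated APOBEC3G peptide 110-148; 0% = full assay without inhibitor and 100% = GST in place of GST-Vif; retest series ran down from 100 µM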
AF4-AF9 inh: inhibitors of AF4 peptide binding to AF9, primary screen, biochemical, AlphaScreen, biotin-AF4 peptide, FLAG-AF9, single point. hit rate 0.47% among 350,000. inhibition, % at 10 µM. Protein AF-9 (Homo sapiens), P42568;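 active means every replicate reaching a set inhibition limit, whatever the replicate mean, cut at about 25% in these data; inconclusive means mean inhibition reaches that limit but some replicates miss it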;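 further: 0% = plate neutral control median and 100% = total signal loss; the record names both 10 and 1 µM as test concentration; the first replicate is given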
Target sequence (P42568 whole entry, looked up): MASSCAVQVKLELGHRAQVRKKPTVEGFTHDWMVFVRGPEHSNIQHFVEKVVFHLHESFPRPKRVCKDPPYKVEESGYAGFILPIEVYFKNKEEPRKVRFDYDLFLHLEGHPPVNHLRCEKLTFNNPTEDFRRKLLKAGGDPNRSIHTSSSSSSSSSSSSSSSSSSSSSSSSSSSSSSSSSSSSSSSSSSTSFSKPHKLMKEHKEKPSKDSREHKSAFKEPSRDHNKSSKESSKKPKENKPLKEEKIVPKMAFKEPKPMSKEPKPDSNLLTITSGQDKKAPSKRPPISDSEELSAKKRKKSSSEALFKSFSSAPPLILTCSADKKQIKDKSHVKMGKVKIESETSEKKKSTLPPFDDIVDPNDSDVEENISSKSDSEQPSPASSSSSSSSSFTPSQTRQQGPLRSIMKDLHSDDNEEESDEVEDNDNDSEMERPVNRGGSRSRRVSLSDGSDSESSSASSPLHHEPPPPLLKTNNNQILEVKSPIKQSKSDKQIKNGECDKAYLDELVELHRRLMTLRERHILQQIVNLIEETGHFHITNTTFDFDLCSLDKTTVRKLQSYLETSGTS
E coli growth: E. coli growth inhibition, primary screen, OD600; Escherichia coli growth, 23 h; stronger effect = lower value; hit rate 0.21% among 330,000; OD600 absorbance (concentration not given with the values);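 active means OD600 absorbance below the run mean of sample wells minus 3.6 SD, in any replicate, cut at about 0.56 in these data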;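 further: stock transfer was 300 nL into about 60 µL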
HNF4A DNA FP: change in binding of human HNF4A to DNA, primary screen, biochemical, fluorescence polarization, FITC-DNA; Hepatocyte nuclear factor 4-alpha (Homo sapiens), P41235; 1 h; activity change, % at 10 µM; hit rate 0.3% among 360,000; AID 1224865, 2016; in the data active means activity change above about 30%, passing the limit was not always enough;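 further: controls were the assay level and a saturating level of protein; the project sought stronger binding though the title names inhibitors; some compounds called inactive have numbers as strong as hits; positive values seem to mean higher polarization but the record does not say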
Ecoli rRNA inh: reduced GFP signal of wild-type E. coli, primary screen, bacterial rRNA inhibitor project, GFP/RFP fluorescence, OD600, single point | AID 720706, 2013 | E. coli WT GFP vs humanized-ribosome RFP mutants, 24 h; stronger effect = lower value; DMSO median 0, no signal -100 | GFP signal change (wild-type ribosome), % (concentration not given with the values) | hit rate 1.6% among 350,000;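 active means significant combined selectivity score with lowered wild-type GFP, culture density cut under 30%, mutant RFP and density less affected; inactive means any of these conditions unmet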; further: one replicate is shown; some compounds called inactive have numbers as strong as hits
Ecoli rRNA inh OD600: second read-out of Ecoli rRNA inh, no call of its own (marks repeat the call); OD600 change, %; measured here: OD600 growth;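 optical density of the mix in the first replicate; 0 = DMSO median and -100 = no signal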
Ecoli rRNA inh RFP: also measured in Ecoli rRNA inh; calls as there; RFP signal change, %; measured here: RFP humanized mutant strains;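 first replicate; 0 = DMSO median and -100 = no signal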
Active calls of the source: *; i = inactive; ? = inconclusive; / = not tested or not shown; & = joins results of further samples. The list is partial. The share of hits here may be higher or lower than overall.

SMILES	FGF22 binding	ALR H2O2 inh	Vif TR-FRET	AF4-AF9 inh	E coli growth	HNF4A DNA FP	Ecoli rRNA inh	Ecoli rRNA inh OD600	Ecoli rRNA inh RFP
C=C1CCN([C@@H](CC(C)C)C(=O)O)S(=O)(=O)c2ccccc21	i	1.4	/	-1.8	/	0.8	2.8	3.6	-1.7
COc1ccc(C)cc1S(=O)(=O)Nc1ccc(F)c(Cl)c1	/	-0.2	15.9%	/	0.756	1.0	/	/	/
CN(Cc1ccccc1)C(=O)c1ccc2c(c1)OCCO2	/	-5.3	-4.5%	/	0.712	-1.3	/	/	/
O=C(c1ccco1)N1CCCSC1=Nc1ccccc1	/	-12.2	0.2%	/	0.69	-0.7	/	/	/
Cc1ccc(NC(=O)C(c2ccccc2)N(C)C)cc1Cl (centres undefined)	/	/	-0.2%	/	0.676	3.0	/	/	/
C[C@H]1CN([C@@H](C)CO)C(=O)c2cc(C3=CCCCC3)cnc2O[C@@H]1CN(C)C(=O)C1CCOCC1	i	/	/	-1.6	/	/	5.1	8.0	-2.3
COc1cc(/C=N/NC(=O)c2cc(-c3ccco3)nc3ccccc23)cc(OC)c1O	i	97.2*	/	-1.5	/	-0.9	7.7	13.1	4.8
COc1ccc2[nH]c(=O)c(CN(CCc3ccccc3)Cc3nnnn3CC3CCCO3)cc2c1 (centres undefined)	/	-24.1	21.0%&-6.0%	/	0.669	0.6	/	/	/
COC(=O)c1cc(=O)n(CCc2ccccc2F)c(=Nc2ccc(F)c(Cl)c2)s1	i	-14.5	-0.8%	4.1	0.75	-2.6	-3.4	-1.7	-5.2
O=C(CSc1nc2ncc(Cl)cc2[nH]1)N1CCC(Cc2ccccc2)CC1	i	-6.4	/	-0.8	0.683	1.1	6.5	8.6	8.8
O=S(=O)(c1ccccc1)N1CCN(Cc2c(O)ccc3ccccc23)CC1	i	-78.1	/	1.4	0.679	-2.2	-7.7	0.4	-2.6
COc1ccc(NC(=O)/C(Cl)=C(/Cl)S(=O)Cc2ccc(C)cc2)cn1 (centres undefined)	/	99.1*	?	/	0.763	-2.6	/	/	/
CC(C)c1ccc(N(CC(=O)NCC2CCCO2)C(=O)Cn2nnc(-c3cccs3)n2)cc1 (centres undefined)	i	-8.6	-0.2%	-1.0	0.679	-2.7	-32.4	-60.0	13.6
COCC(C)NC(=O)c1cccc(Cl)c1 (centres undefined)	/	-3.5	?	/	0.669	3.3	/	/	/
COc1ccc(NC(=O)c2cc(S(=O)(=O)N3CCOCC3)cs2)cc1	/	5.5	-4.4%	2.1	0.673	2.1	-8.4	-6.0	-1.3
CC1CCCN(C(=O)CNS(=O)(=O)c2cccs2)C1 (centres undefined)	i	5.9	1.8%	0.0	0.666	1.2	8.3	0.5	-2.1
COc1ccc(-c2ccnc(SCC(=O)N3CCOCC3)n2)cc1	/	-4.0	12.6%	/	0.628	1.4	/	/	/
C=CCn1c(N)c(C(=O)Nc2ccccc2)c2nc3ccccc3nc21	/	10.5	0.2%	/	0.735	-1.7	/	/	/
Cc1c(NC(=O)CCCN2C(=O)c3cccc4cccc(c34)C2=O)c(=O)n(-c2ccccc2)n1C	i	-3.7	5.8%	1.1	0.673	2.4	1.5	-1.6	-2.7
CCCCN(C(=O)C1=COCCO1)c1c(N)n(CCC)c(=O)[nH]c1=O	i	-7.5	-3.5%	0.7	0.709	2.1	7.3	4.7	-2.8
CCc1nnc(NC(=O)C2COc3ccccc3O2)s1 (centres undefined)	/	/	2.8%	/	0.733	-3.4	/	/	/
CCN(CC)C(=O)CN1CCN(c2ccccc2F)CC1	/	1.4	-2.4%	/	0.674	-3.6	7.9	6.5	-2.4
COc1cccc(NC(=S)N(CCc2c(C)[nH]c3ccccc23)Cc2ccco2)c1	i	-1.0	-1.7%	7.3	0.695	3.5	0.5	20.2	10.8
COC(=O)c1ccc(-c2ccc(CNCC(O)c3ccccc3)o2)cc1 (centres undefined)	/	1.3	-3.1%	/	0.719	-1.2	/	/	/
Cc1ccc(C2C3=C(CC(C)(C)CC3=O)Nc3n[nH]c(C)c32)cc1 (centres undefined)	/	11.8	-3.7%	/	0.728	0.8	/	/	/
CC(C)CN(C(=O)COC(=O)CCSc1ccc(Cl)cc1)c1c(N)n(Cc2ccccc2)c(=O)[nH]c1=O	i	/	-0.2%	-2.7	/	14.0	13.2	15.6	1.0
COC(=O)c1c(NC(=O)CN2CCC3(O)CCCCC3C2c2ccc(F)cc2)sc(C)c1C (centres undefined)	/	-30.4	6.2%	/	0.736	-1.5	/	/	/
O=C(NCCc1nc2ccc(Cl)cc2[nH]1)C1CCC(=O)N(Cc2cccc(F)c2)C1 (centres undefined)	i	-2.4	/	-1.7	/	-2.6	0.3	-2.6	4.5
C/C(=N\N=C1/SC(CC(=O)O)C(=O)N1c1ccccc1)c1ccc(C)cc1 (centres undefined)	i	-0.9	-1.3%	1.0	/	-0.5	-2.7	0.9	-1.9
COc1ccc(OCCSc2ncnc3nc[nH]c23)cc1	i	7.6	?	-2.9	0.701	3.3	-8.4	-17.4	-5.0
Cc1ccc(C2C(C#N)=C(N)N(c3cccnc3)C3=C2C(=O)CCC3)c(C)c1 (centres undefined)	i	23.9	-5.4%	0.7	0.638	0.9	-11.3	-17.4	-6.9
CCS(=O)(=O)c1ccc2c(c1)N(S(=O)(=O)c1ccc(OC)cc1)CC(C(=O)O)O2 (centres undefined)	/	-9.7	-7.1%	/	0.711	-3.9	/	/	/
CC(=O)Oc1cccc(C(=O)Nc2ccccc2C(=O)N2CCCC2)c1	i	30.4	/	-0.4	0.696	-1.7	2.2	6.0	-0.5
CCN(Cc1ccncc1)Cc1nc(Cc2ccccc2Cl)no1	i	/	8.8%	6.4	0.629	0.9	-1.2	-5.4	-1.7
CCc1nn(C(C)C(=O)NCCc2ccc(OC)c(OC)c2)c(=O)c2cc3occc3n12 (centres undefined)	/	-6.8	4.5%	/	0.707	0.3	/	/	/
COc1cccc(NC(=O)CN(C)C(=O)Cc2ccc(Cl)cc2Cl)c1	i	4.7	6.7%	-10.5	0.661	0.4	-5.8	-9.4	0.2
CCOC(=O)N1CCC(N2CCCC(C(=O)c3ccc4cc(OC)ccc4c3)C2)CC1 (centres undefined)	i	-18.3	-2.0%	7.0	0.683	-2.7	6.0	-3.8	24.0
O=c1oc2ccccc2c(=O)c2ccccc12	i	/	-4.5%	2.0	0.671	0.2	0.6	1.7	-1.7
CCN(CC)S(=O)(=O)c1ccc(C(=O)NCCSc2c[nH]c3ccccc23)cc1	i	5.0	/	1.0	0.793	1.3	-1.8	-36.1	-14.0
COc1ccc(CC(=O)Nc2ccc(-c3csc(C)n3)cc2)cc1	/	-3.2	77.6%	/	0.721	0.1	/	/	/
Cc1cc(=O)oc2c(C)c(OCC(=O)NCCCN3CCCC3=O)ccc12	i	12.6	/	1.1	0.677	0.5	11.1	5.4	0.9
Cn1cc(CN2CCN(c3ccccc3)CC2)c2ccccc21	/	42.0	-0.9%	/	0.683	4.6	/	/	/
O=C(CCN1CCCCC1)N[C@H]1CC[C@H](CCn2cc(-c3cccc(F)c3)nn2)O[C@H]1CO	i	/	/	0.2	/	/	1.9	3.2	0.6
Cc1cc(-c2ccccc2)nc2cc(C(=O)OC(C)C)nn12	i	-6.5	/	-3.0	0.691	0.9	-38.5	-52.2	-1.9
O=C(c1ccc(S(=O)(=O)Nc2ccccc2F)cc1)N1CCCCCC1	i	-1.1	-1.1%	-0.6	0.647	3.3	3.2	2.8	-0.6
O=S(=O)(c1ccccc1)c1nc(-c2ccc(Cl)cc2)oc1NCCCN1CCOCC1	i	/	0.7%	6.9	0.626	-1.2	-4.6	-13.9	14.3
C[C@@H]1CN([C@H](C)CO)C(=O)c2cccc(NC(=O)Nc3ccc(C(F)(F)F)cc3)c2O[C@H]1CN(C)C	i	/	/	-2.6	/	/	-4.9	-12.2	3.6
CC(C(=O)N1CCCCC1)N(C)CC(=O)Nc1ccc(Cl)cc1 (centres undefined)	i	2.4	31.2%	-5.5	0.67	3.0	1.0	-2.8	0.7
O=C(Nc1ccccc1N1CCN(C(=O)c2ccccc2)CC1)c1cccc(Cl)c1	/	/	/	-7.8	0.711	0.6	-20.4	-17.5	4.7
CCCn1cc(CN2CCC(n3nccc3NC(=O)c3ccccc3)CC2)c(C)n1	i	-11.1	-4.5%	1.7	0.698	5.7	8.6	20.1	-0.5
CCOc1cc(C(=O)Nc2ccc(F)cc2)cc(Br)c1OC	/	/	-1.7%	/	0.661	-1.5	/	/	/
COc1cccc(-c2nc(CSCC(=O)NCC3CCCO3)c(C)o2)c1 (centres undefined)	/	99.1*	1.1%	/	0.674	0.5	/	/	/
CCOC(=O)Cn1c(S(=O)(=O)Cc2ccccc2Cl)nc(-c2ccccc2)c1-c1ccccc1	i	-37.1	1.2%	7.7	0.73	-3.0	7.6	10.0	-8.0
O=C(CCc1ccc(S(=O)(=O)NCCc2ccccc2)cc1)Nc1ccc2c(c1)OCO2	i	-10.7	43.5µM*	-0.1	0.713	-2.7	-11.9	1.6	4.6
Cc1ccc(SCC(=O)OCC(=O)NC(C)c2ccc(F)cc2)cc1 (centres undefined)	i	-0.1	-6.8%	0.0	0.691	-1.4	1.1	-2.4	0.8
COc1ccc(NC(=O)Nc2cccc3c2O[C@H](CN(C)Cc2ccc(C(=O)O)cc2)[C@H](C)CN([C@H](C)CO)C3=O)cc1	i	/	/	11.0	/	/	4.4	7.6	0.0

(cont.)
SMILES	FGF22 binding	ALR H2O2 inh	Vif TR-FRET	AF4-AF9 inh	E coli growth	HNF4A DNA FP	Ecoli rRNA inh	Ecoli rRNA inh OD600	Ecoli rRNA inh RFP
COCC(=O)Nc1cc(C(=O)OC)cc(C(=O)OC)c1	i	1.3	-1.4%	-6.9	0.682	0.1	3.8	-4.1	-2.0
CCOC1Cc2ccccc2N(C(N)=O)c2ccccc21 (centres undefined)	/	-2.3	-0.7%	/	0.696	-1.7	/	/	/
O=C(NCc1ccncc1)C1Cc2c(-c3ccc4c(c3)OCO4)ccnc2O1 (centres undefined)	i	/	/	0.6	/	-2.4	-1.6	0.1	-0.6
CCC(=O)Nc1ccc2c(c1)C(=O)N(C)[C@@H]1CC[C@@H](CC(=O)NCc3ccccc3)O[C@H]1CO2	i	/	/	2.1	/	/	3.0	1.8	-3.9
COc1cccc(NC(=O)[C@@H]2CCC(=O)N2C2OC(=O)c3ccccc32)c1 (some centres undefined)	i	-11.6	/	0.4	0.761	1.8	/	/	/
CC1(C)Cc2c(sc3nc(SCC(=O)O)nc(N)c23)CO1	i	/	/	-0.8	0.623	-0.3	12.2	14.9	1.6
COCCNC(=O)[C@H]1[C@H](CO)[C@H]2Cn3c(ccc(C4=CCCCC4)c3=O)[C@@H]1N2C(=O)C1CCC1	i	/	/	-1.2	/	/	-0.8	-0.6	-4.2
O=C(Cc1c(F)cccc1Cl)Nc1ccon1	/	-1.9	-3.2%	/	0.689	0.4	/	/	/

Screens as filed in PubChem BioAssay.
